# Calb FLC: C. albicans growth modulation with fluconazole | 300,000 compounds, 0.57% hits | growth inhibition, % (test concentration not listed) | C. albicans CaCi-2 (fluconazole-resistant clinical isolate) + fluconazole, Alamar Blue growth, 48 h | AID 1979;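 active = most replicates above 75%; inconclusive = exactly half above 75%; inactive = most below 75%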;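 also: all wells also contain fluconazole at 8 µg/ml as a sub-toxic cotreatment; 0% = median of DMSO wells and 100% = median of geldanamycin control wells; wells of about 8 µL received 7.5 nL stock; the first replicate is given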
# Vif A3G: inhibitors of Vif binding to APOBEC3G peptide, primary screen, biochemical, TR-FRET, GST-Vif 1-94, biotin-A3G peptide, dose response retest (AID 1117319). one-dose inhibition, %; IC50 in µM for titrated hits. TR-FRET GST-Vif / biotin-A3G peptide binding; higher % means a stronger effect; test concentration not given here; strong numbers were not always called active. 260,000 compounds, 0.57% hits;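 active = above the screen mean plus three standard deviations and confirmed in dose response; inconclusive = results disagree or hit not tested in dose response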;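 also: Vif residues 1-94 fused to GST binding biotinylated APOBEC3G peptide 110-148; 0% = full assay without inhibitor and 100% = GST in place of GST-Vif; retest series ran down from 100 µM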
# T cruzi inh: blocks replication of Trypanosoma cruzi; T. cruzi beta-gal in NIH3T3, luminescence, 90 h; inhibition, % (no concentration beside the values); 300,000 compounds, 1.4% hits; AID 1885;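 active = mean inhibition across valid replicates above about 55%, limit read from the data; inconclusive = mean below that limit but half or more replicates reach it; inactive = mean below it, under half of replicates reach it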;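 also: signal also drops with host cell toxicity which is not excluded here; 0% = plate median of DMSO wells and 100% = zero luminescence signal; higher percent means less beta-gal luminescence so fewer parasites; stock transfer was 50 nL into about 50 µL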
# Beta apoptosis: beta cell apoptosis inhibition; INS-1E cytokine-induced death, ATP luminescence, 48 h; percent of positive-control rescue, neutral wells zero; protection from apoptosis, % (concentration not given with the values); 300,000 compounds, 0.8% hits;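 active = all replicates at 75% or more, or half of them and the mean; inconclusive = half reach 75% but not the mean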;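 also: 0% = cytokine-treated negative control wells and 100% = positive control rescue; higher means more ATP so stronger rescue from cytokine killing; wells of about 40 µL received 100 nL stock; the first replicate is given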
# RanGTP-Impb inh: disruptors of Ran-importin-beta complex formation – biochemical, FRET, CFP-Ran, YFP-importin-beta, homogeneous, primary screen | cell-free CFP-Ran/YFP-importin-beta FRET ratio | 300,000 compounds, 1.1% hits | inhibition, % (no concentration beside the values);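 active = most replicates above 15%; inconclusive = exactly half above 15%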;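 also: 0% = DMSO wells and 100% = Ran loaded with GDP instead of GTP; wells of about 40 µL received 100 nL stock; the first replicate is given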
# Bfl-1 A1 inh: inhibitors of the anti-apoptotic protein A1, read as caspase activation | caspase activation, % (no concentration beside the values) | 330,000 compounds, 0.066% hits | AID 2462 | MEF A1-2A-BIM cells, Caspase-Glo 3/7 luminescence, 3 h; percent of clofoctol response, vehicle zero;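 active = over half of replicate activation scores above 10%, or exactly half above 10 with the replicate mean above 10; inconclusive = replicate mean below 10 yet half the replicates above 10; inactive = over half of replicates below 10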;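 also: wells of about 30 µL received 50 nL stock; many hits fall short of the cut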
# AF4-AF9 inh: MLL-AF4/AF9 protein interaction inhibition | AlphaScreen, biotin-AF4 peptide binding to FLAG-AF9 | inhibition, % at 10 µM | 350,000 compounds, 0.47% hits | P42568;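 active = every replicate reaching a set inhibition limit, whatever the replicate mean, cut at about 25% in these data; inconclusive = mean inhibition reaches that limit but some replicates miss it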;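 also: 0% = plate neutral control median and 100% = total signal loss; the record names both 10 and 1 µM as test concentration; the first replicate is given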
# Target sequence (P42568 whole entry, looked up): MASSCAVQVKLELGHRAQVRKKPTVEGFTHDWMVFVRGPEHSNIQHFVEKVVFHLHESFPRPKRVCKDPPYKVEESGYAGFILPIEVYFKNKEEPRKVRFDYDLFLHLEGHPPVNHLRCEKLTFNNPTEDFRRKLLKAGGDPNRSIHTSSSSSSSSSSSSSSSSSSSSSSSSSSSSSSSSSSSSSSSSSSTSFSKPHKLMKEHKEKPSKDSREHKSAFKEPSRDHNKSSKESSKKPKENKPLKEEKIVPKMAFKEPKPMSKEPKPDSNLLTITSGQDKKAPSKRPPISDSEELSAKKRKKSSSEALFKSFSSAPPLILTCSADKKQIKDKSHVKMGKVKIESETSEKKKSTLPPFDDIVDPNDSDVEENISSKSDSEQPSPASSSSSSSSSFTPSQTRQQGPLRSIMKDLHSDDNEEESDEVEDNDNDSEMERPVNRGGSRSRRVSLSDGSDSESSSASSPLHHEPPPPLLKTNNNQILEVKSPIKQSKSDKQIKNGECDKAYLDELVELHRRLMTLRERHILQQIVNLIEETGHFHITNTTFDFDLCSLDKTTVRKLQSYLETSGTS
# rRNA inh HTS: selective bacterial rRNA inhibition in E. coli; E. coli WT GFP vs humanized-ribosome RFP mutants, fluorescence, 24 h; active compounds read low; DMSO median 0, no signal -100; GFP signal change (wild-type ribosome), % (no concentration beside the values); 350,000 compounds, 1.6% hits; AID 720706;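 active = significant combined selectivity score with lowered wild-type GFP, culture density cut under 30%, mutant RFP and density less affected; inactive = any of these conditions unmet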; also: one replicate is shown; some compounds called inactive have numbers as strong as hits
# rRNA inh HTS OD600: second read-out of rRNA inh HTS, no call of its own (marks repeat the call); OD600 change, %; measured here: OD600 growth;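 optical density of the mix in the first replicate; 0 = DMSO median and -100 = no signal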
# rRNA inh HTS RFP: recorded beside rRNA inh HTS, whose call it bears; RFP signal change, %; measured here: RFP humanized mutant strains;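 first replicate; 0 = DMSO median and -100 = no signal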
# Active calls of the source: *; ? = inconclusive; . = not tested or not shown. A portion of the library; rates above refer to the full screens.
SMILES,Calb FLC,Vif A3G,T cruzi inh,Beta apoptosis,RanGTP-Impb inh,Bfl-1 A1 inh,AF4-AF9 inh,rRNA inh HTS,rRNA inh HTS OD600,rRNA inh HTS RFP
COc1ccc(N2C(=O)CC(Sc3n[nH]c(-c4ccccc4)n3)C2=O)cc1 (centres undefined),-4,?,-1,-7,0.1,-0.2,-1.4,-8,4,1.5
O=C(NCCCn1ccnc1)c1cc(C(=O)C2CCCCC2)c[nH]1,-7,-7%,-15,-1,0.3,0.7,1.3,1,-3,-12
COc1ccc(CCNC(=O)COc2coc(CN3c4ccccc4CC3C)cc2=O)cc1OC (centres undefined),5,4%,-1,.,3.1,0.6,2.6,4,0,0.3
CCN(CC(=O)Nc1ccc2c(c1)OCCO2)C(=O)c1ccc(C(F)(F)F)cc1,0,-3%,-8,.,5.1,-0.3,4.4,0,0,-1.0
C[C@H](NC(=O)c1cc2cc(Cl)ccc2n1C)C(=O)N[C@@H](C(=O)O)c1ccccc1,0,9%,-12,-10,?,-0.1,-14,3,11,0.5
CCCCNC(=O)CNC(=S)N(Cc1ccccc1F)C1CCCCC1,11,-2%,-16,-3,0.8,0.4,-12,-30,-30,9.2
O=c1[nH]c(SCc2ccccc2F)nc2ccccc12,?,.,18,2,1.9,-0.4,-0.7,17,8,-0.6
Cc1noc(C)c1S(=O)(=O)NCCCN1CCN(Cc2ccccc2)CC1,9,24%,4,-3,-3.1,-0.1,.,.,.,.
COc1ccc(OC)c(CN2CCN(C(=O)c3ccc(S(=O)(=O)Nc4ccccc4F)cc3)CC2)c1,.,-2%,.,1,.,-0.2,4.1,-5,4,16
O=C(NNc1ccccn1)C(=O)NNS(=O)(=O)c1ccc(F)cc1,-21,2%,3,1,4.7,0.1,.,.,.,.
COc1cc(Cl)c(C)cc1NC(=O)c1ccccc1-n1cnnn1,.,-9%,.,2,.,2.1,-0.8,-7,-17,1.4
O=C1NCCCCC1NS(=O)(=O)c1ccc(Cl)cc1 (centres undefined),-15,0%,-2,.,4.4,0.2,-1.2,11,8,-0.1
Cc1oc(/N=C/c2ccccc2)c(C#N)c1C,1,.,-13,165*,-1.1,0.6,2.7,31,26,11
CCOC(=O)c1ccc(N2C(=O)CC(Sc3nc(C)cc(C)n3)C2=O)cc1 (centres undefined),-1,.,-8,-12,-3.4,-0.7,-0.8,0,5,-1.4
COc1ccc(Nc2nnc(Cc3ccncc3)c3ccccc23)c(OC)c1,5,0%,20,-1,2.6,0.0,0.8,-5,-8,-1.6
O=C(Nc1ccc(Br)cc1F)c1ccc2nsnc2c1,-4,.,7,.,4.3,-6.5,-3.1,6,18,-3.2
COC(c1ccccc1)c1nnc(CCC(=O)N2CCN(CCOc3ccccc3)CC2)o1 (centres undefined),-5,-1%,10,2,-2.7,0.6,-4.1,13,3,2.7
CCOc1ccc(Cc2nnc(SCC(=O)Nc3ccccc3)n(N)c2=O)cc1,3,0%,0,.,-2.1,0.6,-2.5,-4,3,9.6
COc1ccc(CNC(=O)CCN2C(=O)[C@@H]3Cc4ccccc4CN3C2=O)cc1,-5,2%,8,2,-4.6,-0.5,1.4,17,10,2.5
COCCn1c(C23CC4CC(CC(C4)C2)C3)n[nH]c1=S,-15,3%,-1,0,-2.1,-0.5,.,.,.,.
CC1CN(c2ccc([N+](=O)[O-])cc2C#N)CC(C)O1 (centres undefined),-13,0%,-5,2,-0.9,0.6,0.9,-3,-4,0.1
Cc1ccc(S(=O)(=O)N2CCN(C(=O)COC(=O)CCOc3ccc(C(C)(C)C)cc3)CC2)cc1,-11,9%,-3,-10,1.5,-0.1,-1.4,-9,-2,2.4
Oc1ccccc1Oc1ncc(Br)c(Cl)n1,10,-3%,-46,-8,-0.2,1.3,-0.5,-25*,-5.0*,-10*
CC(=O)CSc1ncnc2c1cnn2-c1ccccc1,-7,.,-18,-3,8.5,-2.1,-1.1,.,.,.
NS(=O)(=O)c1ccc(CCNCc2cc(Br)ccc2OCc2ccccc2F)cc1,-14,11%,-29,49,0.8,0.1,1.2,-54,-83,-16
CCCCNC(=S)NNC(=O)c1c(C)nc2ccccn12,4,-8%,-7,-2,7.3,0.3,-1.9,0,-16,-6.7
CS(=O)(=O)Nc1ccc(C(=O)N2CCN(c3ccccc3F)CC2)cc1,-22,8%,.,0,-2.4,?,.,.,.,.
CC(C)(C)NC(=O)CN(C(=O)CS(=O)CC(=O)Nc1ccc(F)cc1)c1ccc(Cl)cc1 (centres undefined),-8,-3%,7,-4,-2.4,0.4,.,.,.,.
CCCCn1c(N)c(N(CC(C)C)C(=O)c2c(CC)noc2C)c(=O)[nH]c1=O,3,3%,-12,2,1.0,0.0,-0.2,15,13,1.6
CSc1nc(-c2ccc(F)cc2)cc(=O)[nH]1,-1,-2%,3,.,-4.0,-2.5,1.3,4,-2,-0.7
COc1cccc2sc(NNC(=O)c3nc4ccccc4s3)nc12,6,6%,26,.,1.8,-3.2,-2.3,5,3,0.2
Cc1ccc(N=C2NC(=O)/C(=C/c3cccn3C)S2)cc1C,4,-4%,-19,-5,4.6,1.1,4.8,2,6,-0.8
CC(=O)Nc1cccc(/C(C)=N/Nc2nc3ccccc3s2)c1,-29,-1%,22,8,0.7,-1.7,2.1,-21,-19,-5.6
O=C(NCc1ccco1)c1ccc2c(=O)n(CCC3=CCCCC3)c(=O)[nH]c2c1,-15,-3%,2,4,-4.4,-0.1,.,.,.,.
CCOC(=O)Nc1ccc2c(c1)N(C(=O)N1CCN(C)CC1)c1ccccc1CC2,-23,.,4,8,-2.0,-0.4,1.4,-2,3,0.3
O=C(NC1CCN(C(=O)Nc2ccc(F)cc2)CC1)c1ccccc1F,2,.,-2,.,0.6,-0.2,-1.5,6,10,-1.2
N#Cc1c(N)nc(N)nc1Nc1ccc(Br)cc1,33,-10%,-5,4,0.6,-2.2,2.3,-11,-16,-5.9
Cc1cc(Oc2ccccc2)nc(OCC#N)n1,30,-2%,-13,-5,-1.0,-2.7,.,.,.,.
O=C(O)CCc1ccc(-c2ccc(Br)cc2)n1-c1cccc(O)c1,5,-8%,0,0,8.5,0.2,0.7,-12,-21,-1.5
CCOC(=O)Nc1sc(NS(=O)(=O)c2ccccc2)nc1C,-9,16%,-7,-1,2.1,1.5,.,.,.,.
COc1ccc(C(c2c(O)nc(SC)n(C)c2=O)c2c(O)nc(SC)n(C)c2=O)cc1O,-13,13%,4,-7,-1.0,-0.1,-1.9,10,19,1.3
Cc1cc(NC(=O)Cn2nnc(-c3ccccc3NC(=O)c3ccccc3F)n2)no1,-4,.,.,-5,-1.0,0.4,0.1,5,9,-3.8
Cc1ccc(S(=O)(=O)NCCC(=O)NCCCSc2ccccc2)cc1,.,-10%,.,-4,.,-0.6,-1.1,-14,-35,-2.5
Cc1ccc(/C=N/NC(=O)C(NC(=O)c2ccccc2)c2n[nH]c(=O)c3ccccc23)cc1 (centres undefined),-6,-4%,-21,4,6.3,-0.6,.,.,.,.
CCCCNc1nc2ccccc2n1CC(=O)N1CCc2ccccc2C1,-1,10%,9,4,0.3,0.0,.,.,.,.
O=C1c2ccccc2NC(c2ccccn2)N1c1ccc(Cl)cc1 (centres undefined),-20,-1%,1,3,-0.6,0.0,.,.,.,.
O=[N+]([O-])c1cc(Br)c2nsnc2c1N1CCOCC1,25,23%,-11,.,-0.9,0.4,20,-15,-14,3.0
CCCCCn1c(N(C)Cc2ccccc2)nc2c1c(=O)[nH]c(=O)n2C,-2,7%,9,6,-3.1,-0.3,-4.0,-8,-18,-0.3
COc1ccccc1C(=O)NCCC(=O)N1CCN(S(=O)(=O)c2cccc(Cl)c2)CC1,.,.,.,-3,.,-0.7,1.9,0,4,-0.2
Cc1ccc(-c2nc(NC(=O)c3nn(C)cc3[N+](=O)[O-])sc2C)cc1C,3,4%,64*,107*,4.8,39*,-10,-14,-6,1.6
CCOc1cc(/C=N/NC(=O)Cn2nc([N+](=O)[O-])cc2C)cc(Br)c1OCc1ccccc1C,14,0%,57*,7,2.0,1.1,.,.,.,.
CCOC(=O)Cc1csc(NC(=S)NC(=O)c2cccc([N+](=O)[O-])c2)n1,?,-4%,-1,5,5.3,1.8,5.7,12,9,0.9
CCOC(=O)c1sc(NC(C)=O)nc1C,18,15%,-13,-5,5.0,-0.5,-41,0,5,14
N#Cc1c2n(c(=S)n(-c3ccccc3[N+](=O)[O-])c1=O)CCCCC2,2,.,0,-7,-0.6,-0.7,-1.9,-2,-2,3.6
COc1ccc(CNC(=O)Cn2nnc(-c3ccc(NC(=O)C4CCCCC4)cc3)n2)cc1,?,.,8,3,-0.5,0.4,0.0,-2,4,-0.5
CCOc1ccc(N2C(=O)Nc3ccccc3C2(O)C(=O)NCc2ccc(C)cc2)cc1 (centres undefined),6,30%,0,8,1.3,-0.1,-1.4,2,-5,-3.0
Cc1ccsc1C(=O)NCC(=O)OCc1ccccc1,-1,.,3,-4,-4.6,0.9,0.4,10,17,-0.1
NC(=O)c1ccc(NC(=O)Nc2ccc3c(c2)OCO3)cc1,-2,1%,0,-6,-1.1,-1.3,-2.7,0,8,-1.1
Cn1c(CNC(=O)c2ccc(F)cc2)nc2ccccc21,-4,-1%,-3,-1,0.4,0.2,0.4,4,7,-0.9
Cc1ccc(NC(=O)c2c([N+](=O)[O-])cnn2C)cc1C,-8,.,3,9,3.0,1.0,3.3,9,10,2.4

# (further entries)
SMILES,Calb FLC,Vif A3G,T cruzi inh,Beta apoptosis,RanGTP-Impb inh,Bfl-1 A1 inh,AF4-AF9 inh,rRNA inh HTS,rRNA inh HTS OD600,rRNA inh HTS RFP
COC(=O)c1ccc(CNCC(O)COc2ccc(-c3ccccc3)cc2)cc1 (centres undefined),-11,.,33,2,?,-1.3,2.7,-20,-7,11
O=S(=O)(Nc1c(S(=O)(=O)c2ccccc2)c2nc3ccccc3nc2n1C1CCCCC1)c1ccccc1,-2,.,0,2,6.2,-0.8,-47,-11,-16,2.3
CCCCN(C(=O)C1CC(=O)N(c2ccc(OC)cc2OC)C1)c1c(N)n(CC(C)C)c(=O)[nH]c1=O (centres undefined),-7,4%,-6,-1,-2.4,0.3,-0.3,18,11,0.3
O=C(NC1CCCCNC1=O)c1ccco1 (centres undefined),-16,8%,-4,.,4.2,-0.2,-1.7,8,9,0.0
COCc1nnc(NC(=O)CSc2ccc(C)cc2)s1,1,1%,-10,-1,0.5,-0.4,.,.,.,.
COc1ccc(OC)c(CN2CCN(C(=O)c3ccco3)CC2)c1,-11,.,-4,-7,0.5,0.7,0.9,-2,0,-3.5
